NOMO-1 viab: NOMO-1 AML cell viability reduction, primary screen, STK33 inhibitor project, CellTiter-Glo luminescence | 7.5% of 37,000 active | NOMO-1 AML viability, 72 h | inhibition, % (no concentration beside the values);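 active = most replicates above 80%; inconclusive = exactly half above 80%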;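 also: wells of about 30 µL received 25 nL stock; 0% = median of vehicle wells and 100% = reference inhibitor level; the first replicate is given; inactives centre near 10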
* hit, by the source's call; ? = inconclusive. These rows are one share of the data, so the mix of outcomes need not match the whole.

SMILES	NOMO-1 viab
CS/C(=C(/C#N)S(=O)(=O)C(C)C)N1CCCC1	20
Cc1noc(C)c1NC(=O)Nc1ccc2c(c1)C(=O)N([C@H](C)CO)C[C@H](C)[C@H](CN(C)C)OCCCC[C@@H](C)O2	-28
Cc1noc(C)c1NC(=O)N(C)C[C@H]1Oc2ccc(NC(=O)CCCCCC(=O)Nc3ccccc3N)cc2C(=O)N([C@H](C)CO)C[C@H]1C	23
C[C@@H]1CCCCO[C@H](CN(C)C(=O)Nc2ccccc2)[C@@H](C)CN([C@H](C)CO)C(=O)c2cc(NC(=O)NC3CCCCC3)ccc2O1	27
COc1ccc(CN(C)C[C@@H]2Oc3ccc(NC(=O)Nc4ccc(F)cc4)cc3C(=O)N([C@@H](C)CO)C[C@H]2C)cc1	27
COc1ccc(NC(=O)Nc2ccc3c(c2)C(=O)N([C@H](C)CO)C[C@H](C)[C@H](CN(C)S(=O)(=O)c2ccc(OC)cc2)O3)cc1	76
CCOC(=O)c1sc(NC(=O)CSc2ncccn2)c(C#N)c1C	19
CCc1cc(C(=O)OC)c(NC(=O)CC2NCCNC2=O)s1 (configuration not stated)	3
CC(C)NC(=O)N(C)C[C@@H]1Oc2ccc(NC(=O)CCCCCC(=O)Nc3ccccc3N)cc2CC(=O)N([C@H](C)CO)C[C@H]1C	6
COc1ccc(NC(=O)Nc2ccc3c(c2)CC(=O)N([C@@H](C)CO)C[C@H](C)[C@H](CN(C)Cc2ccc(Cl)c(Cl)c2)O3)cc1	113*
Cc1cc(C(=O)Nc2cccc3c2O[C@@H](CN(C)C(=O)Nc2ccccc2)[C@H](C)CN([C@@H](C)CO)C3=O)n(C)n1	23
CCOC(=O)CC1=NN(c2ccccc2)C(=O)/C1=C\c1cc(OC)c(OC)cc1OC	44
Cc1ccc(S(=O)(=O)Nc2ccc3c(c2)CC(=O)N([C@H](C)CO)C[C@@H](C)[C@H](CN(C)S(C)(=O)=O)O3)cc1	3
CC(=O)N1Cc2ccccc2C(C)CC12CCCCC2 (configuration not stated)	41
COc1ccc(S(=O)(=O)N(C)C[C@H]2Oc3c(NC(=O)Nc4ccc(C(F)(F)F)cc4)cccc3C(=O)N([C@H](C)CO)C[C@@H]2C)cc1	?
COc1ccc(CN(C)C[C@H]2Oc3c(NC(=O)Nc4ccc(OC)cc4)cccc3C(=O)N([C@@H](C)CO)C[C@H]2C)cc1	14
COc1ccc(S(=O)(=O)Nc2ccc3c(c2)C(=O)N([C@H](C)CO)C[C@H](C)[C@@H](CN(C)C(=O)NC(C)C)OCCCC[C@@H](C)O3)cc1	30
CC1CCc2c(sc(NC(=O)c3ccccc3[N+](=O)[O-])c2C(N)=O)C1 (configuration not stated)	10
Cc1cc(Br)ccc1NC(=O)Cn1cc([N+](=O)[O-])cn1	-1
COc1ccc(S(=O)(=O)N(C)C[C@@H]2Oc3c(NS(=O)(=O)c4ccccc4)cccc3C(=O)N([C@@H](C)CO)C[C@@H]2C)cc1	21
COc1ccc(NC(=O)Nc2ccc3c(c2)CC(=O)N([C@@H](C)CO)C[C@H](C)[C@@H](CN(C)S(=O)(=O)c2ccc(OC)cc2)O3)cc1	20
C[C@@H]1CN([C@H](C)CO)C(=O)c2cccc(NC(=O)C3CC3)c2O[C@H]1CN(C)CC1CC1	27
CC(=O)NCCc1nc2cc([N+](=O)[O-])ccc2n1C	11
C[C@@H]1CN([C@@H](C)CO)C(=O)c2cccc(NC(=O)Nc3ccc(C(F)(F)F)cc3)c2O[C@H]1CN(C)C(=O)Nc1ccc2c(c1)OCO2	89*

Brought forward from above: 5 compounds, followed by the next part.
SMILES	NOMO-1 viab
COc1ccc(S(=O)(=O)N(C)C[C@@H]2Oc3c(NS(=O)(=O)c4ccccc4)cccc3C(=O)N([C@@H](C)CO)C[C@@H]2C)cc1	21
COc1ccc(NC(=O)Nc2ccc3c(c2)CC(=O)N([C@@H](C)CO)C[C@H](C)[C@@H](CN(C)S(=O)(=O)c2ccc(OC)cc2)O3)cc1	20
C[C@@H]1CN([C@H](C)CO)C(=O)c2cccc(NC(=O)C3CC3)c2O[C@H]1CN(C)CC1CC1	27
CC(=O)NCCc1nc2cc([N+](=O)[O-])ccc2n1C	11
C[C@@H]1CN([C@@H](C)CO)C(=O)c2cccc(NC(=O)Nc3ccc(C(F)(F)F)cc3)c2O[C@H]1CN(C)C(=O)Nc1ccc2c(c1)OCO2	89*
COc1ccc(NC(=O)N(C)C[C@H]2Oc3ccc(NC(=O)Cc4ccccc4)cc3CC(=O)N([C@H](C)CO)C[C@H]2C)cc1	-13
CC(C)CC(=O)N1CCN(Cc2ccc(Cl)cc2)CC1	22
C[C@@H]1CN([C@H](C)CO)C(=O)Cc2cc(NC(=O)Cn3cnnn3)ccc2O[C@@H]1CN(C)Cc1ccc(C(=O)O)cc1	11
COC(=O)c1sc(NC(=S)Nc2cccc(Cn3cc(Cl)cn3)c2)c(C(=O)OC)c1C	?
Cc1ccc(S(=O)(=O)N(C)C[C@@H]2Oc3c(NS(=O)(=O)c4ccc(Cl)cc4)cccc3C(=O)N([C@@H](C)CO)C[C@H]2C)cc1	5
Cc1noc(C)c1S(=O)(=O)Nc1ccc2c(c1)CC(=O)N([C@@H](C)CO)C[C@@H](C)[C@@H](CN(C)Cc1ccc(C(F)(F)F)cc1)O2	33
C[C@@H]1CCCCO[C@@H](CN(C)CC2CC2)[C@@H](C)CN([C@H](C)CO)C(=O)c2cc(NC(=O)CCCCCC(=O)Nc3ccccc3N)ccc2O1	-8
C[C@H](CO)N1C[C@H](C)[C@H](CN(C)Cc2ccc(C(=O)Nc3ccccc3N)cc2)Oc2c(NS(=O)(=O)c3ccccc3)cccc2C1=O	139*
Cc1noc(C)c1NC(=O)N(C)C[C@H]1Oc2c(NC(=O)Nc3cccc4ccccc34)cccc2C(=O)N([C@H](C)CO)C[C@@H]1C	39
C[C@@H]1CN([C@@H](C)CO)C(=O)Cc2cc(N(C)C)ccc2O[C@@H]1CN(C)Cc1ccc(C(=O)Nc2ccccc2N)cc1	140*
C=C1C(=O)O[C@H]2C3=C(C)C[C@H](OC(C)=O)C[C@]3(C)CC[C@@H]12	122*
CC1=C(C(=O)Nn2cnc3cccc(F)c3c2=N)Sc2ccccc2N1	-24

Next section; it opens with the 2 that closed the last part.
SMILES	NOMO-1 viab
C=C1C(=O)O[C@H]2C3=C(C)C[C@H](OC(C)=O)C[C@]3(C)CC[C@@H]12	122*
CC1=C(C(=O)Nn2cnc3cccc(F)c3c2=N)Sc2ccccc2N1	-24
CCCN(C)C[C@H]1OCCCC[C@@H](C)Oc2ccc(NC(=O)Nc3ccc(F)cc3)cc2C(=O)N([C@H](C)CO)C[C@@H]1C	21
Cc1noc(C)c1S(=O)(=O)Nc1ccc2c(c1)C(=O)N([C@@H](C)CO)C[C@@H](C)[C@H](CN(C)Cc1ccc(Oc3ccccc3)cc1)O2	29
C[C@@H]1CCCCO[C@@H](CN(C)Cc2ccc(Cl)c(Cl)c2)[C@@H](C)CN([C@H](C)CO)C(=O)c2cc(NC(=O)Nc3cccc4ccccc34)ccc2O1	45
COc1ccc(Oc2ccc(NC(=O)C(C)N3C(=O)C4C5C=CC(C6CC56)C4C3=O)cc2)cc1 (configuration not stated)	18
C[C@@H]1CC[C@H](O)/C=C/C(=O)O[C@H](C)CC[C@H](O)/C=C/C(=O)O1	108*
Cc1noc(C)c1NC(=O)N(C)C[C@@H]1Oc2c(NS(=O)(=O)c3ccc(F)cc3)cccc2C(=O)N([C@H](C)CO)C[C@H]1C	-13
O=C(CSc1nc2ccccc2[nH]1)Nc1ccc(Cl)c(Br)c1	27
C[C@H](CO)N1C[C@H](C)[C@@H](CN(C)CC2CC2)Oc2c(NC(=O)Nc3cccc4ccccc34)cccc2C1=O	38
Nc1nonc1-c1ccccc1	15
C[C@H]1CN([C@@H](C)CO)C(=O)c2cc(NC(=O)Nc3ccc(F)cc3)ccc2O[C@H]1CN(C)C	14
O=C(Cc1ccccc1)Nc1c(C(=O)N2CCCCC2)cnn1-c1ccccc1	4
Cc1c(NC(=S)NCCc2c[nH]c3ccccc23)c(=O)n(-c2ccccc2)n1C	3
Cc1noc(C)c1S(=O)(=O)Nc1ccc2c(c1)CC(=O)N([C@H](C)CO)C[C@H](C)[C@H](CN(C)S(=O)(=O)c1cccs1)O2	19
COC(=O)c1ccc(C)c(NC(=O)CN(c2cc(Cl)c(Cl)cc2Cl)S(C)(=O)=O)c1	96*
CC(=O)Nc1ccc(S(=O)(=O)Nc2cccc(N(C)S(C)(=O)=O)c2)cc1	12
CC(C)NC(=O)N(C)C[C@@H]1Oc2ccc(NC(=O)Cc3cn(C)c4ccccc34)cc2C(=O)N([C@@H](C)CO)C[C@@H]1C	-7
C[C@@H]1CN([C@H](C)CO)C(=O)c2cccc(NC(=O)c3cnccn3)c2O[C@@H]1CN(C)S(=O)(=O)c1ccccc1	3
C[C@@H]1CN([C@@H](C)CO)C(=O)c2cc(NC(=O)Cn3cnnn3)ccc2O[C@H]1CN(C)Cc1ccc(C(=O)Nc2ccccc2N)cc1	36
C[C@H]1CN([C@@H](C)CO)C(=O)c2cccc(NS(=O)(=O)c3ccc(Cl)cc3)c2O[C@H]1CN(C)CC1CC1	23
COc1ccc(NC(=O)Nc2ccc3c(c2)C(=O)N([C@H](C)CO)C[C@H](C)[C@H](CN(C)S(=O)(=O)c2ccc(OC)cc2)OCCCC[C@@H](C)O3)cc1	17
CC(C)(C)C1CCc2c(sc(NC(=O)CSc3nnc(-c4ccccc4)o3)c2C#N)C1 (configuration not stated)	8
C[C@@H]1CN([C@H](C)CO)C(=O)c2cc(NC(=O)c3ccncc3)ccc2O[C@H]1CN(C)Cc1ccccc1	-6
O=C(/C=C/c1ccccc1)C1C(=O)C(=O)N(c2ccccc2)C1c1ccccc1 (configuration not stated)	5
C[C@H]1CN([C@@H](C)CO)C(=O)c2cc(NC(=O)Nc3ccccc3)ccc2O[C@@H]1CN(C)C(=O)Nc1ccccc1	6

Another view of part of the listing above:
SMILES,NOMO-1 viab
Cc1noc(C)c1S(=O)(=O)Nc1ccc2c(c1)CC(=O)N([C@H](C)CO)C[C@H](C)[C@H](CN(C)S(=O)(=O)c1cccs1)O2,19
COC(=O)c1ccc(C)c(NC(=O)CN(c2cc(Cl)c(Cl)cc2Cl)S(C)(=O)=O)c1,96*

Continuation:
SMILES	NOMO-1 viab
C[C@H](CO)N1C[C@H](C)[C@@H](CN(C)C(=O)Nc2ccc(F)cc2)Oc2ccc(NS(=O)(=O)c3ccc(Cl)cc3)cc2C1=O	22
COc1ccc(NC(=O)Nc2cccc3c2O[C@@H](CN(C)C)[C@H](C)CN([C@H](C)CO)C3=O)cc1	-7
COc1ccc(S(=O)(=O)N(C)C[C@H]2Oc3ccc(NC(=O)Cc4ccccc4)cc3CC(=O)N([C@H](C)CO)C[C@H]2C)cc1	4
COc1ccc(S(=O)(=O)Nc2ccc3c(c2)C(=O)N([C@H](C)CO)C[C@H](C)[C@@H](CN(C)S(=O)(=O)c2ccc(Cl)cc2)OCCCC[C@@H](C)O3)cc1	57
COc1ccc(NC(=O)N(C)C[C@H]2Oc3ccc(NC(=O)CCCN(C)C)cc3C(=O)N([C@@H](C)CO)C[C@H]2C)cc1	20
COc1ccc(S(=O)(=O)Nc2ccc3c(c2)C(=O)N([C@@H](C)CO)C[C@@H](C)[C@@H](CN(C)Cc2ccc(Cl)c(Cl)c2)O3)cc1	114*
Cc1ccc(C(=O)c2cccs2)s1	40
O=C(CC1(O)C(=O)N(Cc2ccc(Cl)c(Cl)c2)c2ccccc21)c1ccc2c(c1)OCCO2 (configuration not stated)	23
COc1ccc(S(=O)(=O)Nc2ccc3c(c2)CC(=O)N([C@H](C)CO)C[C@@H](C)[C@@H](CN(C)S(=O)(=O)c2ccc(C)cc2)O3)cc1	16
COC(=O)c1c(NC(=S)NCc2cc(C)n(C)n2)sc2c1CCCCCC2	5
O=C(Cn1c(=O)oc2ccccc21)Nc1ccc(C(=O)O)cc1	19
C[C@H]1CN([C@@H](C)CO)C(=O)c2cccc(NC(=O)C3CCOCC3)c2O[C@@H]1CN(C)C(=O)Nc1ccc2c(c1)OCO2	4
C=CCNC(=O)COc1ccc(Cl)cc1Cl	115*
Cc1ccc(C2C(C(=O)c3cccs3)C(=O)C(=O)N2CCN(C)C)o1 (configuration not stated)	4
C[C@@H]1CN([C@H](C)CO)C(=O)Cc2cc(NC(=O)Nc3ccccc3)ccc2O[C@H]1CN(C)S(=O)(=O)c1ccc(Cl)cc1	15
Cc1cccc(NC(=O)c2ccccc2OCC(=O)Nc2cccc([N+](=O)[O-])c2)c1C	35
O=C(CSc1nc2ccccc2[nH]1)N1c2ccccc2Sc2ccccc21	16
Cc1ccc(S(=O)(=O)N(C)C[C@@H]2Oc3c(NC(=O)c4nc5ccccc5s4)cccc3C(=O)N([C@@H](C)CO)C[C@H]2C)cc1	38
CC(=O)CCC1C2C(O)C(C(C)C)C(OC(=O)/C=C/c3ccccc3)CC12C (configuration not stated)	11
C[C@@H]1CN([C@@H](C)CO)C(=O)c2cc(NC(=O)C3CCCCC3)ccc2O[C@H]1CN(C)Cc1ccc(Cl)c(Cl)c1	53
C[C@H]1CN([C@@H](C)CO)C(=O)Cc2cc(NS(C)(=O)=O)ccc2O[C@@H]1CN(C)Cc1ccc(C(=O)Nc2ccccc2N)cc1	16
Cc1ccc(-c2nnc(SCC(=O)Nc3ccccc3Cl)n2C)c(Cl)c1	26
COc1ccc(OC(C)C(=O)Nc2cc(C)c(Cl)cc2OC)cc1 (configuration not stated)	44
CC(C)NC(=O)Nc1ccc2c(c1)CC(=O)N([C@H](C)CO)C[C@H](C)[C@H](CN(C)S(=O)(=O)c1cn(C)cn1)O2	17
Cn1c(COc2ccccc2)nnc1SCc1nc2ccccc2c(=O)[nH]1	5
O=c1c(Cc2ccccc2OCc2ccccc2)coc2ccccc12	40
c1ccc(OCCSc2nc3ccccc3n2CCOc2ccccc2)cc1	35

Screening results as filed in PubChem BioAssay.
